MgrA DNA FP = modulators of Staphylococcus aureus MgrA DNA binding | inhibition, %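 (about 10 µg/mL by stock and volumes)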 | fluorescence polarization | actives 0.13% (n = 84,000) | AID 602314;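 active means above 50% in either of two replicates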;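 further: 0% = protein plus DNA without compound and 100% = DNA alone without protein; higher means less MgrA bound to DNA so lower polarization; one replicate is shown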
Sa helicase inh = blocks Staphylococcus aureus DNA helicase; purified S. aureus helicase, fluorescence unwinding assay; about half of the hits fall short of the stated cut; inhibition, %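 (tested at about 80 µM)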; actives 0.05% (n = 120,000); AID 485395;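 active means both duplicates at 50% or more, or one of them with a favoured structure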;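 further: 0% = mean of negative control wells and 100% = mean of positive control wells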
The depositor's hits bear a star; . = no result given. This is a subset. The share of hits here may be higher or lower than overall.

Sa helicase inh	MgrA DNA FP	mol
.	-2.9	Cc1ccc(C(=O)NC2(O)C(=O)c3ccccc3C2=O)cc1C
-3	.	O=C(Cc1ccc2c(c1)OCCO2)Nc1cccc(C(F)(F)F)c1
.	-1.5	CCOc1ccccc1/C=N/NC(=O)N/N=C/c1ccccc1OCC
4	-2.4	CN(C)N1C(=O)CC(n2cnc3ccccc32)C1=O (stereo unspecified)
.	-1.4	CCOC(=O)c1cn(Cc2ccccc2)c2cc(C)nn2c1=O
12	.	CCC(CC(=O)NCc1ccc(Cl)cc1Cl)n1ccnc1 (stereo unspecified)
8	-1.5	CCN(CC)Cc1nc2c(c(=O)[nH]1)C(CC)(CC)Cc1ccccc1-2
19	8.5	Oc1ccc(O)c(C2CC3CCC2C3)c1 (stereo unspecified)

The list goes on.
Sa helicase inh	MgrA DNA FP	mol
-38	.	CC1CC(=O)Nc2ccccc2N1S(=O)(=O)c1ccc(C(F)(F)F)cc1 (stereo unspecified)
8	-0.3	[O-]/[N+](=C\c1ccc(OC(F)F)cc1)c1ccccc1
8	.	O=C(CCNc1ccc(Cl)cc1)c1cccs1
11	1.2	COCCNc1oc(-c2cccc(C)c2)nc1C#N
-3	-1.1	CCc1ccccc1NC(=O)C1CCCN(c2nnc(-n3cccc3)s2)C1 (stereo unspecified)
-20	.	CCOc1cc(N2CCOCC2)c(OCC)cc1NC(=O)COC(=O)CN=C1NS(=O)(=O)c2ccccc21
-8	.	Cc1ccc(S(=O)(=O)N/N=C/c2c(O)ccc3oc4c(c23)CCCC4)cc1
-14	.	CCNC(=O)c1cccc(NC(=O)Cc2n[nH]c(=O)c3ccccc23)c1

Compounds listed so far containing sulfur, in the order listed:
Sa helicase inh	MgrA DNA FP	mol
-38	.	CC1CC(=O)Nc2ccccc2N1S(=O)(=O)c1ccc(C(F)(F)F)cc1 (stereo unspecified)
8	.	O=C(CCNc1ccc(Cl)cc1)c1cccs1
-3	-1.1	CCc1ccccc1NC(=O)C1CCCN(c2nnc(-n3cccc3)s2)C1 (stereo unspecified)
-20	.	CCOc1cc(N2CCOCC2)c(OCC)cc1NC(=O)COC(=O)CN=C1NS(=O)(=O)c2ccccc21
-8	.	Cc1ccc(S(=O)(=O)N/N=C/c2c(O)ccc3oc4c(c23)CCCC4)cc1

Next part.
Sa helicase inh	MgrA DNA FP	mol
11	-3.5	Cc1ccc(NC(=O)C2(NC(=O)c3ccc(-n4cnnn4)cc3)CCCCC2)cc1
7	-1.4	CCCC[n+]1cc(-c2ccccc2)nc(N2CCCCC2)n1
14	5.1	COc1ccc(N2CCN(C(=O)CCNS(=O)(=O)c3ccc(Br)s3)CC2)cc1
4	.	COc1ccc2[nH]c3ccccc3c2c1
-9	.	O=C(CSc1nccc(=O)[nH]1)CSc1nccc(=O)[nH]1
-17	3.0	O=C(OC1CCCCC1=O)c1ccc(O)cc1 (stereo unspecified)
13	-1.6	COc1cc2c(cc1OC)CN(CCC(=O)O)CC2
3	-1.3	CC(C)(C)c1cn(-c2ccc(F)cc2)c(=S)[nH]1

More records:
Sa helicase inh	MgrA DNA FP	mol
-21	.	CCC(=O)N1c2ccc(S(=O)(=O)CCC(=O)Nc3ccc(C)c(F)c3)cc2CC1C (stereo unspecified)
-11	14	CCN1C(=O)C(=Cc2ccc(-c3ccc(Br)c(Cl)c3)o2)C(=O)N(CC)C1=S
7	.	CNc1c(NC(=O)Nc2cccc(OC)c2)c(=O)oc2ccccc12
.	2.2	COc1ccc(C(=O)Nc2cc(-c3nc4ccccc4s3)ccc2C)cc1OC
8	-1.7	CC(C)(C)C(=O)Nc1ccc(N2CCN(C(=O)c3ccco3)CC2)c(Cl)c1
32	.	COc1cccc(C2Nc3ccccc3-c3nc4ccccc4n32)c1 (stereo unspecified)
.	-0.3	Cc1oc(C(=O)NN)nc1-c1ccccc1
-5	-0.3	COc1ccccc1CNC(=O)C1CCCN(S(=O)(=O)c2ccc(C)cc2)C1 (stereo unspecified)

Carrying on:
Sa helicase inh	MgrA DNA FP	mol
-5	0.9	NC(=O)N/N=C/c1cn(-c2ccccc2)nc1-c1ccccc1
3	0.2	O=C(CSC(=S)N1CCSCC1)c1ccccc1
-13	.	COc1cc(/C=C/C2=NNC(=O)CC2)cc(OC)c1OC
.	-1.4	COc1ccc2oc(=Nc3cccc(C#N)c3)c(C(=O)Nc3ccccc3)cc2c1
.	-0.6	FC(F)(F)c1c2c(nc3cc(-c4ccco4)nn13)CCC2
12	-0.7	O=C(CSc1nc(-c2ccco2)cc(C(F)(F)F)n1)N(Cc1ccccc1)Cc1ccccc1
.	-0.8	Clc1ccc(-c2nnnn2-c2cnccn2)cc1
.	-1.0	O=C1c2ccncc2C(=O)N1c1ccc(Cl)cc1

Following part.
Sa helicase inh	MgrA DNA FP	mol
.	2.0	CCOC(=O)N/N=C(\C)c1cccc([N+](=O)[O-])c1
5	5.1	Cc1[nH]c2ccc(CNS(=O)(=O)c3ccc(S(=O)(=O)N4CCOCC4)cc3)cc2c1C
7	.	CNS(=O)(=O)c1cccc(C(=O)NCc2ccccc2)c1
7	.	COC(=O)c1ccc(-c2ccco2)n1CC(=O)N1CCc2ccccc21
.	6.9	Clc1cncc(Cl)c1N/N=C/c1ccccn1
.	-2.6	CCOc1cc(C(=O)Nc2ccc(Cl)c(-c3nc4cc(C)c(C)cc4o3)c2)cc(OCC)c1OCC
2	.	CCN1CCCC1CNc1ncnc2c1cnn2-c1ccc(C)cc1 (stereo unspecified)
4	-0.3	CCCCC(=O)Oc1cc(-c2ccccc2)c2oc(=O)sc2c1

Later entries.
Sa helicase inh	MgrA DNA FP	mol
7	0.0	COc1ccc(NC(=S)NCC(OC)OC)cc1
-17	.	O=C(NCCO)c1ccc(CSc2nc3ccccc3c(=O)[nH]2)cc1
.	-2.8	O=C(Cc1ccccc1)NC1=NCCS1
6	.	CCc1ccc(Nc2nnnn2-c2ccccc2)cc1
.	-0.8	O=C(Nc1ccc(Oc2ccccc2)cc1)c1cnccn1
.	0.9	Brc1ccc(-n2nnnc2/C=C/N2CCCC2)cc1
-2	-0.5	COc1cc(C)nc(OCCNC(=O)COc2ccc(Cl)cc2C)n1
.	-2.0	CCc1nc2cc(C(F)(F)F)cc(Cl)c2nc1CC

(next part)
Sa helicase inh	MgrA DNA FP	mol
-2	0.3	CNC(=O)NCCN1CCCC1=O
-2	-3.6	CCc1cn(C2CC(O)C(CO)O2)c(=O)[nH]c1=O (stereo unspecified)
6	0.4	CCN(C(=O)Cn1nnc(-c2ccc3c(c2)OCO3)n1)c1ccccc1
-4	6.8	CCCCn1c2c(c3ccccc31)CCc1nonc1-2
9	.	CN(CC(=O)c1c(N)n(C)c(=O)n(C)c1=O)C1CCS(=O)(=O)C1 (stereo unspecified)
-6	-0.1	O=C(Nc1cccc(C(=O)N2CCOCC2)c1)NC1CCCCC1
.	-0.4	N#CC1CN(Cc2ccccc2)CN(Cc2ccccc2)C1
4	0.7	Cc1n[nH]c(=S)n1CC1CCCO1 (stereo unspecified)

Remaining list, next part
Sa helicase inh	MgrA DNA FP	mol
.	-0.8	CCOC(=O)C(C#N)=C1CCCC1
-2	.	Cc1sc2nc(CSC(C)C(=O)N=c3sc4ccccc4n3C)[nH]c(=O)c2c1C (stereo unspecified)
1	.	CCOC(=O)c1ccc(NC(=O)C2OCCc3ccccc32)cc1 (stereo unspecified)
-17	-1.1	CN(C(=O)c1ccccc1NS(=O)(=O)c1ccc(F)cc1)C1CCCCC1
-17	0.0	O=S(=O)(c1cccc(Cl)c1)N1CCc2ccccc2C1
2	.	CC(C)NC(=O)N1CCn2cccc2C1C (stereo unspecified)
.	-1.6	N#Cc1cc(N)ccc1-n1cccc1
9	.	O=C(Cn1ncc2c1-c1ccccc1OC2)NCCCN1CCCC1

(further entries)
Sa helicase inh	MgrA DNA FP	mol
.	-2.2	CCOC(=O)c1cc(C(C)(C)C)n(-c2ccc(N3CCOCC3)cc2)c1C
8	.	CCC(CC)NC(=O)c1ccc2nc[nH]c2c1
-14	.	COc1ccc(-c2oc3ccccc3c(=O)c2O)cc1
-166	.	CN1/C(=C\C=N\NC(N)=O)C(C)(C)c2ccccc21
.	0.4	CSC1=NCN(CCCO)CN1
-10	0.4	C=CCN(CC=C)C(=O)CSc1ccc2ccccc2c1
13	.	CC(O)CC12CC3CC(CC(C3)C1)C2 (stereo unspecified)
7	.	CCOC(=O)Cn1c(=O)n(Cc2ccco2)c(=O)c2ccc(C(=O)NC3CCCC3)cc21

New compounds follow:
Sa helicase inh	MgrA DNA FP	mol
6	.	Cc1cc(C)nc(SCC(=O)NN=Cc2cccs2)n1
.	-1.1	NC(=O)c1cc2cc(Br)ccc2oc1=Nc1ccc(-c2ccccc2)cc1
11	.	COC(=O)CCn1ccc(C)n1
33	.	CCOC(=O)N1CCc2c(sc3ncn(C)c(=O)c23)C1
8	.	O=C(NCCO)c1cn(Cc2ccccc2)nc1-c1ccccc1
-17	.	COc1ccc(N(C)C(=O)C2CCN(S(=O)(=O)c3cccc4nonc34)CC2)cc1
1	.	O=C(Oc1ccc(Br)cc1)c1cccnc1N1CCCC1
.	-0.8	COC(=O)c1sc2ncccc2c1N

Structures shown so far with bromine:
Sa helicase inh	MgrA DNA FP	mol
14	5.1	COc1ccc(N2CCN(C(=O)CCNS(=O)(=O)c3ccc(Br)s3)CC2)cc1
-11	14	CCN1C(=O)C(=Cc2ccc(-c3ccc(Br)c(Cl)c3)o2)C(=O)N(CC)C1=S
.	0.9	Brc1ccc(-n2nnnc2/C=C/N2CCCC2)cc1
.	-1.1	NC(=O)c1cc2cc(Br)ccc2oc1=Nc1ccc(-c2ccccc2)cc1
1	.	O=C(Oc1ccc(Br)cc1)c1cccnc1N1CCCC1

(list continues)
Sa helicase inh	MgrA DNA FP	mol
22	.	Cc1ccc(Cn2nnc3c(=O)[nH]c(C4CCN(S(=O)(=O)c5ccccc5C#N)CC4)nc32)cc1
12	.	Cc1cc(=O)oc2cc(OCC(=O)c3ccc4c(c3)NC(=O)CO4)ccc12
12	.	CNC(=O)c1cc(N2CCN(c3ccccc3)CC2)ccn1
.	-1.9	O=C(CS(=O)(=O)c1ccc(Cl)cc1)NO
15	-0.4	Cc1ccc(OCC(=O)Nc2ccc(O)c(C(=O)O)c2)cc1
12	.	Cc1ccn2c(NC(=O)C3CC3)c(-c3ccccc3)nc2c1
5	.	CCOC(=O)CCc1c(C)nn(-c2ccc(N3CCCCC3)nn2)c1C
10	.	O=C(NCCC1=CCCCC1)c1cc2cccc3c2n1CCS3

The results go on:
Sa helicase inh	MgrA DNA FP	mol
-16	0.5	C/C(=N\n1cnnc1)c1ccc(O)cc1
-3	.	Cc1cccc(N2CCN(C(=O)CCCCCn3c(=S)[nH]c4ccc(N5CCOCC5)cc4c3=O)CC2)c1C
-1	.	COC(=O)c1ccc(COC(=O)c2ccc(S(=O)(=O)N(C)c3ccccc3OC)cc2)o1
8	-0.7	O=C1OC(c2ccc(Cl)cc2)=N/C1=C\c1ccccc1
.	1.6	O=C(O)C1CC(C(F)(F)F)CC(C(F)(F)F)C1 (stereo unspecified)
.	1.7	Cc1cn(C(=O)Nc2ccc(Cl)cc2)nc1-c1ccccc1
-8	.	Clc1ccc(CO/N=C/c2cccs2)cc1
4	.	N#CC(C#N)=CNCCc1ccc(Cl)cc1

(more compounds)
Sa helicase inh	MgrA DNA FP	mol
.	-0.6	N#CCSc1nnc(N)s1
14	.	Cc1ccc2c(C)nc(Nc3nc(CSc4nnc(C)s4)cc(=O)[nH]3)nc2c1
15	.	CN(C1CCCCC1)S(=O)(=O)c1ccccc1N=Cc1c(O)n(C)c(=O)n(C)c1=O
4	0.2	CCCNC(=O)c1cc(-c2ccco2)on1
22	.	O=C(c1ccccc1)c1cccs1
9	-0.8	C=C1Cn2c(nc3sc4c(c3c2=O)CCCC4)S1
3	-0.6	CN(C)CCN(C(=O)c1ccc(Br)cc1)c1nc2ccc(Cl)cc2s1
7	6.0	Nc1nnc(SCC(=O)Nc2ccc(F)cc2)n1CC(=O)Nc1ccc(F)cc1

Going on with the list.
Sa helicase inh	MgrA DNA FP	mol
1	1.0	Cc1ccc(CNC(=O)C2CC(=O)N(CCC(C)C)C2)cc1 (stereo unspecified)
-5	0.3	COc1ccc2ccc(OC)c(/C=C3\NC(=S)N(C)C3=O)c2c1
14	.	CCc1ccc2oc(C(=O)NCc3ccncc3)cc(=O)c2c1
.	0.7	C=CCNc1nc(OC(C(F)(F)F)C(F)(F)F)nc(N2CCCCC2)n1
17	-5.0	O=C(c1cnn2ccccc12)N1CCCc2ccccc21
11	-6.7	CC(=O)OC1CCC(C(=O)O)CC1 (stereo unspecified)
4	0.6	COc1cccc(-c2noc(-c3cccnc3)n2)c1
-8	.	COc1ccc(C2CC(=O)NC(NC(=O)CCCOc3ccccc3)=N2)cc1 (stereo unspecified)

Further compounds follow:
Sa helicase inh	MgrA DNA FP	mol
13	-2.9	OC(CC#CCN1CCOCC1)(c1ccccc1)c1ccccc1
30	.	N#Cc1ccc(NC(=O)C(F)(F)F)cc1
-5	.	Nc1nc2ncc(C(=O)c3cc(F)ccc3O)cc2s1
13	1.2	COc1cc(C(=O)N2CCCN(c3nc4cc(C)ccc4cc3C#N)CC2)cc(OC)c1OC
1	-0.1	Cc1ccc(S(N)(=O)=O)cc1C(=O)NCC(C)C
4	.	O=C(CCn1cccc1)Nc1ccccc1
-16	.	Cc1cc(-c2ccc(S(=O)(=O)NC3CCCc4ccccc43)cc2)on1 (stereo unspecified)
5	1.1	Cc1cccc(C)c1NCc1nnc(SCC(N)=O)n1-c1ccccc1

(more compounds)
Sa helicase inh	MgrA DNA FP	mol
-21	.	CCSC1=C(C#N)C(c2cccc(Cl)c2Cl)CC(=O)N1 (stereo unspecified)
12	-2.1	COC(=O)C1=CN(CCCN2CCCC2=O)C=C(C(=O)OC)C1c1cccc(F)c1
.	0.8	On1c(-c2ccc(Cl)cc2)nc2ccc(Cl)cc21
-2	0.3	CC(C)C(NC(=O)COc1ccccc1)C(C)C
9	0.5	O=C(c1ccccc1)N1N=C(c2ccccc2)CC1c1ccc2nccnc2c1 (stereo unspecified)
-3	0.4	COc1ccc(NC(=O)N2CCc3cc(OC)c(OC)cc3C2c2ccccc2)cc1 (stereo unspecified)
-9	3.7	CN(CCC#N)C(=O)C1CCN(S(=O)(=O)c2ccc(-n3cnnn3)cc2)CC1
.	5.1	N#CC(=C1C=CC(=NO)C=C1)c1ccccc1
